INS promoter inh = TRM-6 insulin promoter activity inhibition | TRM-6 cells (human fetal islet line), insulin promoter-eGFP reporter, imaging; reporter expression induced with tamoxifen | inhibition, % at 2 µM | 130,000 compounds, 0.9% hits | AID 1273;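 active = inhibition above the mean plus 3 SD, with well images judged a real hit on visual review, cut at about 60% in these data, passing the limit was not always enough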
GALR2 ag = activates the human galanin receptor 2 | GALR2-expressing cells, agonist activation read-out | 140,000 compounds, 0.48% hits | activation, %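 (tested at 5 µM)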 | O43603;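 active = above mean plus 3 SD of all compounds, about 5% in these data, not always enough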;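 note: 0% = vehicle buffer wells and 100% = reference agonist at full effect; tested in CHO reporter cells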
Target sequence (O43603 whole entry, looked up): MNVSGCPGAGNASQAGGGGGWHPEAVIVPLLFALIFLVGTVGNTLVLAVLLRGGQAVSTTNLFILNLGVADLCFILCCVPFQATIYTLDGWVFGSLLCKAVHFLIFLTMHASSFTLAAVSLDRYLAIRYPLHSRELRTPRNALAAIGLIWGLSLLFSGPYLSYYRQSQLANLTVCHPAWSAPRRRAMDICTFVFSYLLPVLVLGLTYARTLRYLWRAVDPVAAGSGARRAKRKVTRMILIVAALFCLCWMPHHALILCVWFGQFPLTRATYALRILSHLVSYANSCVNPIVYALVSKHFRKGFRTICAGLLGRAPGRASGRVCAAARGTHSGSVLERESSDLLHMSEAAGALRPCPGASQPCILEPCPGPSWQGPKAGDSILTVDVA
HSV augment = increases HSV replication in cells | HSV replication augmentation in cells, fold increase | maximum fold increase | 220,000 compounds, 0.005% hits;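 active = peak rise of 1.5-fold or more in the series; tested in PC3 cells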;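 note: first round at 10 µM; read as green reporter fluorescence; hits show the peak of a series up to 25 µM; 1 = signal of infected wells without compound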
PKD1 inh = blocks activity of human protein kinase D1 | 200,000 compounds, 0.056% hits | inhibition, %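 (about 10 µM by stock and volumes)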 | PKD1 kinase fluorescence polarization assay | Q15139;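 active = inhibition of 50% or more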;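 note: controls were vehicle for no effect and a reference inhibitor for full effect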
RGS16-Gao HTS = RGS16-Galphao interaction regulator (human); bead-based flow cytometry RGS16-Galphao binding, fluorescence; actives lie on both sides; binding response (% of control), % at 10 µM; 220,000 compounds, 0.38% hits; AID 1441;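 active = below 25% or above 175%, edge rows of some plates excepted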;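 note: Galphao activated by GDP with aluminum fluoride before binding; 100% = wells without compound and 0% = beads without RGS; some results beyond the cut were filed as inactive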
Target sequence (O15492 whole entry, looked up): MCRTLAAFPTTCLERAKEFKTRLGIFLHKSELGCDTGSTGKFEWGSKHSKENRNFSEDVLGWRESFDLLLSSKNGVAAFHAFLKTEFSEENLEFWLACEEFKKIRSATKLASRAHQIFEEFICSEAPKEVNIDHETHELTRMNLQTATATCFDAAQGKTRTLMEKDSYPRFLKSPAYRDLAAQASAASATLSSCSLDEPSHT
Target sequence (P09471 whole entry, looked up): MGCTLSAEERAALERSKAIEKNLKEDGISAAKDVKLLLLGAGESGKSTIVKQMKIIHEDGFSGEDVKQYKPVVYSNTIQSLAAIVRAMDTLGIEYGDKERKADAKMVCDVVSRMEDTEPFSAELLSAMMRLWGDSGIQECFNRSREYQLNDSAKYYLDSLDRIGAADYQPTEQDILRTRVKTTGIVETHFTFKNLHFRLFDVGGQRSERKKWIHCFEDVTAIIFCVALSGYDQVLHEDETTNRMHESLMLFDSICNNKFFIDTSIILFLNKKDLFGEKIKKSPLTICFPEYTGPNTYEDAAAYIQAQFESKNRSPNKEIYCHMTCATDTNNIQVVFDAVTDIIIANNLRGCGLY
INS promoter inh cell count = also measured in INS promoter inh; calls as there; normalized cell count, %; measured here: cell count, toxicity; reference of the scale not given here;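 cells exposed to compound for 48 h; stained nuclei by imaging scaled within each plate; lower means fewer cells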
HSV augment primary fold = recorded beside HSV augment, whose call it bears; fold increase; compound at 10 µM; measured here: primary screen fold increase 10 uM; tested in PC3 cells;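 GFP signal in the first replicate; 1 = infected wells without compound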
Active calls of the source: *; i = inactive; . = not tested or not shown.

SMILES	INS promoter inh	INS promoter inh cell count	GALR2 ag	HSV augment	HSV augment primary fold	PKD1 inh	RGS16-Gao HTS
CN(CC(=O)Nc1ccc(N2CCOCC2)cc1)CC(=O)Nc1ccc(C(F)(F)F)cc1	57	103	.	i	0.84	-3	100
COc1ccc(NC(=O)CN(C)S(=O)(=O)c2ccc(Cl)cc2)c([N+](=O)[O-])c1	8	64	-2.6	i	1.1	-3	91
CC(=O)c1ccc(S(=O)(=O)Nc2ccc(-c3cn4c(n3)SCC4)cc2)cc1	-20	129	.	i	0.99	-6	90
CCNC(=O)C1CCCN(c2nc(C)cc(C)n2)C1 (stereo unspecified)	18	165	.	i	0.96	1	108
Cn1c(=O)c([N+](=O)[O-])c(NCCc2ccccc2)c2ccccc21	40	118	-0.6	i	0.99	2	106
CCOc1ccc(C2=[N+]([O-])C(C)(C)N(O)C2(C)C)cc1	50	111	-2.2	i	1	5	115
CC(C)CC1(C)NC(=O)N(Cc2cc([N+](=O)[O-])cc3c2OCOC3)C1=O (stereo unspecified)	.	.	.	i	1.1	.	117
CC1CCCCN1S(=O)(=O)c1ccc(C(=O)Nc2nnc(-c3ccccn3)o2)cc1 (stereo unspecified)	-64	137	.	i	0.99	-13	100
O=C(Nc1ccc(O)c(-c2nc3ccccc3o2)c1)C1(c2ccccc2)CCCC1	.	.	-1.8	i	1	-1	109
CCOC(=O)c1nc2sc(C)c(C)c2c(=O)[nH]1	.	.	-0.8	i	1.3	-4	97
O=C(CSc1ccc(-c2ccco2)nn1)NCc1ccccc1	.	.	-0.3	i	0.94	1	103
CCCc1cc(C(=O)Nc2ccccc2SC)no1	0	101	-1.4	i	0.93	2	106
O=C1CN(C(=O)COC(=O)c2cccc(S(=O)(=O)NCc3ccccc3)c2)c2ccccc2N1	-43	126	-3.8	i	0.93	2	98
O=C(Cn1nc(C(F)F)cc1C(F)F)NNC(=S)Nc1ccc(Cl)cc1	37	156	-3.6	i	0.98	6	113
Cc1ccc(OCC(=O)N2N=C(c3ccncc3)CC2(O)C(F)(F)F)cc1C (stereo unspecified)	.	.	.	i	0.87	.	107
C=CCn1c(SCC(=O)N(C)C2CCS(=O)(=O)C2)nnc1-c1ccncc1 (stereo unspecified)	.	.	-1.5	.	.	4	107
CC(Sc1ncc(C#N)c(N)n1)C(=O)Nc1ccccc1 (stereo unspecified)	-91	181	0.2	i	0.84	-12	94
C=CCOc1ccc(NC(=O)C(=O)NCCCn2ccnc2)cc1	.	.	-2.0	i	1.2	5	98
Cc1cc(=O)[nH]c(SCC(=O)c2ccc(C)c(C)c2)n1	-10	119	0.2	i	0.99	-7	103
COc1ccc(C2C(C#N)=C(N)Oc3cc(O)ccc32)cc1OC (stereo unspecified)	.	.	-0.5	i	0.75	-10	98
Cc1cccc(OCC(=O)NCCN2CCOCC2)c1	.	.	-1.2	i	0.69	-4	115
CCCCc1n[nH]c(=S)n1Cc1ccc(C)cc1	.	.	.	i	0.91	-9	97
C[C@@H]1C[C@H]2[C@@H]3C[C@H](F)C4=CC(=O)C=C[C@]4(C)[C@@]3(F)[C@@H](O)C[C@]2(C)[C@@]1(O)C(=O)CO	-9	71	0.9	i	0.76	-4	153
CC(=O)N1CC=CC1(C)C(=O)O (stereo unspecified)	24	122	-0.6	i	0.93	-6	100
COc1cccc(C2(O)CCN(C(=O)C3CCC3)CC2)c1	.	.	-1.8	i	0.93	7	112
COc1ccccc1NC(=O)c1ccc(NC(=O)CSc2n[nH]c(N)n2)cc1	19	79	-0.2	i	0.91	6	100
O=C(Nc1cccnc1Cl)c1cccc(F)c1	22	86	.	i	0.94	-2	99
Cc1cc(C)n(CCC(=O)Nc2cccc(F)c2)n1	20	120	.	i	1	0	103
CC(C)CNC(=O)CC(c1ccccc1)c1ccccc1	0	66	.	i	0.93	0	86
COc1ccc(NC(=O)COc2nsnc2N2CCCCC2)cc1	.	.	-1.0	i	1	5	94
COc1cc(C(=O)OCC(=O)NC2CCS(=O)(=O)C2)ccc1OCc1c(C)noc1C (stereo unspecified)	.	.	-0.7	i	1.1	-4	125
Cc1cnc(NC(=O)C(C)N2CCN(C)CC2)s1 (stereo unspecified)	.	.	.	i	0.97	-4	98
NC(=O)c1ccc(N2CCOCC2)nc1	47	92	.	i	0.91	6	101
COc1cccc(Oc2c(C)oc3c(CN4CCCC4)c(O)ccc3c2=O)c1	.	.	.	i	0.95	.	93
CC1=NN(c2ccc(C(F)(F)F)cn2)C(=O)C1	-52	85	0.0	i	0.8	-4	102
C=CCNC(=O)c1cc2cccc(OC)c2oc1=O	33	141	.	i	0.96	-5	103
O=C(O)CCNS(=O)(=O)c1ccc2ccccc2c1	42	142	-2.7	i	1	-1	102
COc1ccc(S(=O)(=O)N(C)CC(=O)Nc2cccc(C(C)=O)c2)cc1	-30	99	-3.3	i	0.81	-2	97
OC(c1ccccc1)c1nc2ccccc2s1 (stereo unspecified)	-29	94	-1.5	i	0.96	5	99
Cc1cc2cc(C)c(NCCNC(=O)c3cccs3)nc2cc1C	.	.	.	i	0.82	12	112

Quoted from the listing:
COc1cccc(Oc2c(C)oc3c(CN4CCCC4)c(O)ccc3c2=O)c1 – RGS16-Gao HTS: 93
O=C(O)CCNS(=O)(=O)c1ccc2ccccc2c1 – GALR2 ag: -2.7
COc1cc(C(=O)OCC(=O)NC2CCS(=O)(=O)C2)ccc1OCc1c(C)noc1C (stereo unspecified) – GALR2 ag: -0.7
OC(c1ccccc1)c1nc2ccccc2s1 (stereo unspecified) – RGS16-Gao HTS: 99
COc1ccc(S(=O)(=O)N(C)CC(=O)Nc2cccc(C(C)=O)c2)cc1 – INS promoter inh cell count: 99

Additional results:
SMILES	INS promoter inh	INS promoter inh cell count	GALR2 ag	HSV augment	HSV augment primary fold	PKD1 inh	RGS16-Gao HTS
O=C(CSc1nncs1)NC1CCCc2ccccc21 (stereo unspecified)	33	135	.	i	1.1	4	103
CCOC(=O)C1(Cc2ccc(Cl)cc2)CCN(Cc2ccon2)CC1	.	.	.	i	0.95	6	104
Cc1cc(/C=C2\C(=N)N3N=C(C(C)C)SC3=NC2=O)c(C)n1Cc1ccccc1	.	.	.	i	1.1	.	99
NS(=O)(=O)c1ccc(NC(=O)COC(=O)CCc2c[nH]c3ccccc23)cc1	.	.	.	i	0.87	2	103
NC(=S)N/N=C/c1ncc(C(F)(F)F)cc1Cl	.	.	.	i	0.6	.	101
COc1ccc(NC(=O)C2CC(=O)N=C(N)S2)cc1 (stereo unspecified)	.	.	.	i	0.95	-6	105
COc1ccc(-n2c(=S)[nH]c3cc(C(=O)Nc4cc(OC)c(OC)c(OC)c4)ccc3c2=O)c(OC)c1	.	.	.	i	0.81	8	105
COc1ccc(/C=N/NC(=O)c2cccc(Br)c2)cc1COc1ccccn1	.	.	.	i	0.81	.	99
CCC1(C)CC(=O)N(c2ccc(C(=O)O)c(O)c2)C1=O (stereo unspecified)	-9	41	0.0	i	0.86	7	98
COc1cc(NC(=O)CN2CCN(c3ccccc3)CC2)c(C)cc1[N+](=O)[O-]	7	79	-1.5	i	1.1	-2	93
Cc1cc(-c2c(C(=O)N3CCOCC3)c(C)nn2-c2cccc(C(F)(F)F)c2)no1	.	.	.	i	0.98	.	100
Cc1cc(C)n2nc(SCC(=O)Nc3c(C)nn(-c4ccccc4)c3C)nc2n1	-90	49	-1.4	i	1.1	-9	99
CCCCN=C1NN=C(c2ccc3c(c2)OCCO3)CS1	58	42	.	i	1	1	114
COc1ccc(CC(=O)Nc2nnc(SCc3ccccc3)s2)cc1S(=O)(=O)N1CCOCC1	-17	96	-1.1	i	0.92	6	108
COc1ccc(-n2ncc3c(=O)n(CC(=O)OCc4ccccc4)cnc32)cc1	-27	203	-0.6	i	1	-8	91
C/C(CC1CC(COCC(C)C)OC1=O)=N\Nc1nc(-c2ccccc2)cs1 (stereo unspecified)	21	74	-1.1	i	1.1	-2	102
CCN(CC)S(=O)(=O)c1ccc(Cl)c(NC(=O)COC(=O)/C=C/c2ccc(O)c(OC)c2)c1	.	.	-1.5	i	0.9	-3	109
CC1=C(C#N)C(Nc2ccc(C)cn2)(C(F)(F)F)C(=O)N1 (stereo unspecified)	11	94	-3.4	i	1	-4	97
CC(=O)c1cccc(NC(=O)Nc2c(C)nn(C)c2C)c1	10	71	-1.1	i	0.89	7	103
c1coc(Cn2nnnc2CN2CCN(C3CCCC3)CC2)c1	-39	117	-1.6	.	.	0	95
COc1cccc(NC(=O)Cc2c(C(=O)O)[nH]c3ccccc23)c1	41	99	-0.7	i	0.98	8	93
COc1ccc(C(NC(=O)/C=C/c2ccco2)c2ccc(OC)c(OC)c2)cc1OC	29	95	-3.1	i	1.1	-2	68
COc1ccc(CCNC(=O)C2CCC(CNc3c(N4CCCC4)c(=O)c3=O)CC2)cc1OC (stereo unspecified)	23	134	-0.8	i	0.92	-5	101
O=C(Nc1ccc(Oc2ccc(NC(=O)Nc3ccccc3Cl)cc2)cc1)Nc1ccccc1Cl	.	.	.	i	0.7	.	107
Cc1ccc(CNC(=O)CC2Nc3c4ccccc4nc(=S)n3C2=O)cc1 (stereo unspecified)	.	.	.	i	1	-1	103
COc1ccc(N(C(=O)CNC(=O)c2cccs2)C(C(=O)NCC2CCCO2)c2ccc(OC)c(OC)c2)cc1 (stereo unspecified)	.	.	.	i	0.98	8	105
COc1ccc(NC(=O)c2cc(F)c(F)cc2Cl)cc1Cl	.	.	.	i	0.95	.	118
CCOC(=O)c1c(C)[nH]c(C(=O)OCC(=O)N(C)C2CCS(=O)(=O)C2)c1C (stereo unspecified)	-13	90	-0.8	i	1	-7	107
CCOc1cccc(OCCCCn2ccnc2)c1	8	140	-1.2	i	1	-4	100
O=S(=O)(c1ccccc1)N1CCN=C1SCc1ccc(Cl)c(Cl)c1	.	.	-0.7	i	0.96	6	108

In another format: results already given
O=C(Nc1ccc(Oc2ccc(NC(=O)Nc3ccccc3Cl)cc2)cc1)Nc1ccccc1Cl
  INS promoter inh = .; INS promoter inh cell count = .; GALR2 ag = .; HSV augment = i; HSV augment primary fold = 0.7; PKD1 inh = .; RGS16-Gao HTS = 107
COc1ccc(C(NC(=O)/C=C/c2ccco2)c2ccc(OC)c(OC)c2)cc1OC
  INS promoter inh = 29; INS promoter inh cell count = 95; GALR2 ag = -3.1; HSV augment = i; HSV augment primary fold = 1.1; PKD1 inh = -2; RGS16-Gao HTS = 68
COc1ccc(N(C(=O)CNC(=O)c2cccs2)C(C(=O)NCC2CCCO2)c2ccc(OC)c(OC)c2)cc1 (stereo unspecified)
  INS promoter inh = .; INS promoter inh cell count = .; GALR2 ag = .; HSV augment = i; HSV augment primary fold = 0.98; PKD1 inh = 8; RGS16-Gao HTS = 105
COc1ccc(CCNC(=O)C2CCC(CNc3c(N4CCCC4)c(=O)c3=O)CC2)cc1OC (stereo unspecified)
  INS promoter inh = 23; INS promoter inh cell count = 134; GALR2 ag = -0.8; HSV augment = i; HSV augment primary fold = 0.92; PKD1 inh = -5; RGS16-Gao HTS = 101

New compounds follow
SMILES	INS promoter inh	INS promoter inh cell count	GALR2 ag	HSV augment	HSV augment primary fold	PKD1 inh	RGS16-Gao HTS
COC(=O)C1C(C(=O)OC)C1(c1ccccc1)c1ccccc1 (stereo unspecified)	.	.	.	i	0.99	.	101
N#CC1=C2SC=C(c3ccc(Br)cc3)N2CCCC1=O	-62	130	.	i	0.95	-2	103
c1ccc(Oc2ccc(-c3ccnc4nc(N5CCOCC5)nn34)cc2)cc1	3	104	.	i	0.85	-6	101
Oc1ccc(Cl)cc1-c1cc(-c2ccccc2Cl)[nH]n1	-450	36	-3.4	i	1.1	-3	98
Cc1ccc(Sc2c(C#N)c(-c3ccccc3)nn2C)cc1	9	99	-0.3	i	1	-11	111
CCC1C(=O)N=C(SCC(=O)Nc2ccc(C(=O)OC)cc2)NC1=O (stereo unspecified)	58	75	-0.2	i	0.91	-4	100
COC(=O)c1sc(NC(=O)/C=C/c2ccc(C)o2)nc1C	-29	138	-1.8	i	1.4	-16	97
CN1C(=O)c2ccc(C(=O)NCc3ccccc3)cc2C1=O	38	93	-1.8	i	0.9	10	99
CCOC(=O)c1cn2nc(Oc3ccc(OC)cc3)ccc2n1	.	.	.	i	0.96	.	99
CN(C)CCCn1c(SCC(=O)Nc2sc3c(c2C#N)CCCC3)nnc1-c1ccncc1	-35	71	-0.2	i	0.9	-5	208
COc1ccc(-c2nc(NC(=O)c3n[nH]c(=O)c4ccccc34)sc2C)cc1	14	122	2.3	i	0.86	-12	118
O=C1C2C3C=CC(CC3)C2C(=O)N1/N=C/c1ccc(O)c(O)c1 (stereo unspecified)	-222	120	0.5	i	1.1	0	90
COC(=O)CNC(=O)C(CCSC)NC(C)=O (stereo unspecified)	.	.	.	i	1.1	10	96
Cn1cc(C(F)(F)F)nc1-c1ccc(OCC(O)CNCCOc2ccc(O)c(C(N)=O)c2)cc1 (stereo unspecified)	.	.	.	i	0.93	.	105
OCC1(CC2CCCCO2)CCN(Cc2ccccc2-c2ccco2)CC1 (stereo unspecified)	.	.	.	i	1.1	9	104
Cc1ccc2nc(Cc3ccc(N)cc3)[nH]c2c1	48	101	-1.5	i	1	1	110
